TAR Tat displ = HIV-1 TAR-Tat binding disruption; AID 1259389; HIV-1 TAR RNA, Tat peptide displacement FRET; stronger effect = higher value; z-score (concentration not given with the values); 0.6% of 100,000 active;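 also: score is relative to mean and SD of negative controls; some compounds called inactive have numbers as strong as hits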
CDC25B-CDK2 inh = human CDC25B-CDK2/CyclinA binding inhibition. z-score (test concentration not listed). 0.72% of 94,000 active. HTRF CDC25B-CDK2/CyclinA binding, anti-His/anti-Flag; stronger effect = higher value. P30305+P24941;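 also: score is relative to mean and SD of negative controls; strong numbers were not always called active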
The depositor's hits bear a star; . = no result given.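 The calls were made as follows: active = z-score from 3 up in half or more of its runs; inactive = the rest.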 Compounds were not picked by outcome, and some 0.97% of all compounds hit somewhere here.

SMILES | TAR Tat displ | CDC25B-CDK2 inh
Cc1noc(C)c1S(=O)(=O)Nc1ccc2[nH]ccc2c1 | . | -0.32
CCN(CC)C(=O)CN1Cc2ccccc2C1=O | 0.24 | .
CCn1c(Cn2cccn2)nc2cc(NC(=O)C(C)C)ccc21 | 1.5 | -0.94
Cc1ccc(-c2[nH]c3c(c2-c2c(-n4cccc4)n(C)c(=O)n(C)c2=O)c(=O)n(C)c(=O)n3C)c(C)c1 | -1.3 | -0.35
Cc1nn(CCCC(=O)NC(C)C)c(=O)c2cc3sccc3n12 | 0 | -1.6
Cc1nnsc1C(=O)Nc1nnc(SCc2ccc(F)cc2)s1 | 0.09 | -0.08
CC1CCN(CC(O)Cn2cnc3c2c(=O)n(C)c(=O)n3C)CC1 (stereo not drawn) | . | -1.2
O=C(Nc1ccccc1Cl)NC1CCN(c2nc3ccccc3s2)CC1 | 0.7 | -1.3
Cc1ccccc1NC(=O)C(C)SC1=Nc2ccccc2C2=NC(C)C(=O)N12 (stereo not drawn) | -0.28 | .
CC(C)c1ccc(N2C(=O)C3C4C=CC(CC4)C3C2=O)cc1 (stereo not drawn) | 0.41 | 0.24
CC1(C)CC(=O)C2=C(C1)Nc1ccccc1N(C(=O)c1cccs1)C2c1cccs1 (stereo not drawn) | 2.8 | .
Cc1c(NC(=O)C2=Cc3sc4c(c3CS2)CCCC4)c(=O)n(-c2ccccc2)n1C | -0.04 | .
OC(CN1CCCC1)Cn1ccc(C(F)(F)F)n1 (stereo not drawn) | . | -2.1
CNC(=S)C12CC3CC(CC(C3)C1)C2 | . | -1.1
O=C(CCC(=O)N1Cc2cccn2-c2ccccc21)NCCc1c[nH]c2ccccc12 | -0.03 | .
COc1cc(SC)ccc1C(=O)Nc1nc2ccc(S(C)(=O)=O)cc2s1 | 2.2 | -11
CCOC(=O)c1c(C)oc2ncnc(NCC3CCCN3CC)c12 (stereo not drawn) | 0.17 | .
NC(N)=NC(N)=Nc1ccc2c(c1)OCO2 | . | -1.2
Cc1ccc2nc(-n3nc(C)c4c3NC(=O)CC4c3cc(Cl)ccc3F)sc2c1 (stereo not drawn) | 2.4 | .
CCCc1cc(=O)[nH]c(-n2nc(C)cc2NC(=O)C2CC(=O)N(c3ccc(Cl)cc3)C2)n1 (stereo not drawn) | -1.4 | .
COC(=O)CSc1nc2c(cc1C#N)CCCCCC2 | . | -0.55
CC(C)Cc1c(O)nc2n(c1=O)CCCS2 | -1.6 | -2.5
Cc1cc(/C(N)=N/OC(=O)c2cccc(Cl)c2)no1 | . | -0.24
COc1ccc2nc(Nc3sc4c(c3C(N)=O)CCCC4)sc2c1 | -1.3 | 4.3*
O=c1oc2ccc(Cl)cc2cc1-c1ccc([N+](=O)[O-])cc1 | . | -3.4
Cc1ccc(C)c(S(=O)(=O)Nc2ccc3c(c2)N(S(=O)(=O)c2ccc(F)cc2)CCC3)c1 | 0.97 | .
Cc1cccc(-c2nc(SCC(=O)N3CCc4ccccc43)c3c(=O)n(C)c(=O)n(C)c3n2)c1 | 0.61 | .
Cc1cc(C)c(-c2c(NCc3ccc4c(c3)OCO4)c(=O)c2=O)cc1C | 0.66 | .
O=C1CC(N2CCN(c3ccc(O)cc3)CC2)C(=O)N1c1ccc(Br)cc1 (stereo not drawn) | . | -1.2
CCNC(=O)C(=O)NCC(c1cccs1)S(=O)(=O)c1cccs1 (stereo not drawn) | 3.2 | .
C=CCN1C(=O)C2(/C(=C(/O)c3ccccc3)C(=O)C(=O)N2CCCN2CCOCC2)c2ccccc21 (stereo not drawn) | 0.61 | 0.44
O=C(Nc1nnc2n1CCCS2)C1CCCC1 | 5.2 | .
O=C1OC2(CCCCC2)OC1c1ccccc1 (stereo not drawn) | . | -2.5
CCCn1nnc(NCc2ccc(OCc3ccc(Cl)cc3)cc2)n1 | 0.4 | .
CCn1c(C)[n+](CC)c2ccc(C(=O)N(C)C)cc21 | 1.2 | -2.2
CCC1CN(C(=O)Nc2cccc(Br)c2)c2ccccc2S1 (stereo not drawn) | 0.54 | .
CCOC(=O)[C@H](CCc1ccccc1)N[C@H](C)C(=O)N1[C@H](C(=O)O)C[C@@H]2CCCC[C@@H]21 | 0.79 | .
O=c1ccc2cc(S(=O)(=O)N3CCN(c4ncccn4)CC3)ccc2[nH]1 | 2.2 | .
O=C1NC(c2ccc(O)cc2)Nc2sc3c(c21)CCN(Cc1ccccc1)C3 (stereo not drawn) | -0.14 | -0.92
Cc1nn(C)c2c1c(-c1ccccc1)cc(=O)n2Cc1cc(=O)n2cc(Cl)ccc2n1 | -0.04 | .
CC(=O)N(Cc1ccco1)C1(C(=O)NC2CCCC2)CCCCC1 | . | -0.6
O=C(Nc1ccc(S(=O)(=O)N2CCCCC2)cc1)c1csnn1 | 1.1 | -1.9
COCCc1nn2c(=O)cc(COC(=O)COc3ccc(Cl)cc3)nc2s1 | 0.64 | .
CCSC1=C(C#N)C(c2ccc(Cl)cc2)C2=C(CCCC2=O)N1 (stereo not drawn) | -0.99 | -2.2
CC(C)(C)NC(=O)c1nn2c(c1Cl)NC(c1ccccc1)CC2C(F)(F)F (stereo not drawn) | 3.3 | -2.3
Cc1cc(C(=O)Nc2ccc(Oc3c(Cl)cccc3Cl)nc2)c(C)o1 | . | -1.6
CC(COc1nnc(-c2cccs2)o1)NC(=O)Cn1nnc2ccccc2c1=O (stereo not drawn) | -1.3 | -1.7
COc1nc(-c2ccc(C)cc2)ccc1-c1noc(-c2ccco2)n1 | -11 | -2.8
CN1CCN(CCNC(=O)Cn2ncn3c(cc4cc(F)ccc43)c2=O)CC1 | 0.55 | -2
O=C(O)c1nn2c(c1Br)NC(c1ccccc1)CC2C(F)(F)F (stereo not drawn) | 1.1 | 0.6

Other results.
SMILES | TAR Tat displ | CDC25B-CDK2 inh
Cc1noc2ncn(CC(=O)N(C)c3ccc(F)cc3)c(=O)c12 | 0.64 | .
COC(=O)Cn1c(SCc2cc(C)ccc2C)nc2ccsc2c1=O | . | -1.6
COc1ccccc1NC(=O)c1cc2ccccc2c(=O)s1 | 0.86 | -1
O=C(Nc1ccc(-n2cnnn2)cc1)c1cccs1 | 1.7 | 0.12
CC(=O)Oc1ccc(C2C(C(=O)OC3CCCC3)=C(C)NC3=C2C(=O)CCC3)cc1 (stereo not drawn) | 1.4 | -0.59
Cc1ccc(C2=CC(=O)Nc3ccccc3S2)cc1C | -2.6 | -1.6
COCCCN1C(=O)c2oc3cc(C)cc(C)c3c(=O)c2C1c1ccc(Cl)cc1 (stereo not drawn) | -0.53 | -2.9
CCCn1c(=O)[nH]c2c(c1=O)C(C)(CC)Cc1ccccc1-2 (stereo not drawn) | -0.48 | 1.1
O=C(CN1c2ccccc2S(=O)(=O)c2ccccc21)NCC1CCCO1 (stereo not drawn) | -0.58 | .
Cc1ncc([N+](=O)[O-])n1Cc1ccc(Br)cc1 | . | -0.72

Random excerpt: 4 records from the list, in no set order.
SMILES | TAR Tat displ | CDC25B-CDK2 inh
Cc1noc2ncn(CC(=O)N(C)c3ccc(F)cc3)c(=O)c12 | 0.64 | .
COC(=O)Cn1c(SCc2cc(C)ccc2C)nc2ccsc2c1=O | . | -1.6
Cc1ccc(C2=CC(=O)Nc3ccccc3S2)cc1C | -2.6 | -1.6
Cc1ncc([N+](=O)[O-])n1Cc1ccc(Br)cc1 | . | -0.72

More structures
SMILES | TAR Tat displ | CDC25B-CDK2 inh
Cc1cc2c(cc1NS(=O)(=O)c1ccc3c(c1)CCCC3)n(C)c(=O)n2C | -0.04 | .
COc1ccc(Nc2nc(N3CCOCC3)nc(N3CCN(c4ccc(OC)cc4)CC3)n2)cc1 | . | -1.4
Cc1ccc(-n2c(-c3ccncc3)n[nH]c2=S)cc1 | . | 0.87
O=S(=O)(NCc1ccc(F)cc1)c1ccc(-n2cnnn2)cc1 | 0.73 | -1.7
O=C(c1cc(-c2cccs2)[nH]n1)N1CCN(C2CCCCC2)CC1 | -0.2 | .
Cc1ccc(N2C(=O)C3N=NN(Cc4ccc(Cl)cc4)C3C2=O)cc1 (stereo not drawn) | -0.59 | -0.58
Cc1nn(CCCC(=O)NCCc2cccs2)c(=O)c2c1sc1ccccc12 | 2.5 | -2.3
COc1ccc(N2CCN(C(=O)C3CCCN(c4ncnc5c4nc4n5CCCCC4)C3)CC2)cc1 (stereo not drawn) | 0.59 | .
COc1cc(-c2nc3ncccn3c2Nc2ccc(OC)c(OC)c2)ccc1O | 0.93 | -1.6
CCC1CN(C(=O)Nc2ccc(Br)cc2F)c2ccccc2S1 (stereo not drawn) | 1.8 | .

Reprinted from above for reference:
SMILES | TAR Tat displ | CDC25B-CDK2 inh
Cc1noc(C)c1S(=O)(=O)Nc1ccc2[nH]ccc2c1 | . | -0.32
CCN(CC)C(=O)CN1Cc2ccccc2C1=O | 0.24 | .
CCn1c(Cn2cccn2)nc2cc(NC(=O)C(C)C)ccc21 | 1.5 | -0.94
Cc1ccc(-c2[nH]c3c(c2-c2c(-n4cccc4)n(C)c(=O)n(C)c2=O)c(=O)n(C)c(=O)n3C)c(C)c1 | -1.3 | -0.35
Cc1nn(CCCC(=O)NC(C)C)c(=O)c2cc3sccc3n12 | 0 | -1.6

Of the compounds above, 2 contain a cyano group:
SMILES | TAR Tat displ | CDC25B-CDK2 inh
COC(=O)CSc1nc2c(cc1C#N)CCCCCC2 | . | -0.55
CCSC1=C(C#N)C(c2ccc(Cl)cc2)C2=C(CCCC2=O)N1 (stereo not drawn) | -0.99 | -2.2

(more compounds)
SMILES | TAR Tat displ | CDC25B-CDK2 inh
Cc1nc(N2CCN(Cc3ccc4c(c3)OCO4)CC2)[nH]c(=O)c1CCC(C)C | 0.17 | -0.08
CC(=O)N1CC=C(c2c(C)[nH]c3ccccc23)CC1 | -1.1 | 2.8
O=C1Nc2ccccc2/C1=C\c1ccccc1N1CCN(Cc2ccccc2)CC1 | . | -0.26
COc1ccc(S(=O)(=O)N2CCc3ccccc3C2)cc1OC | 2.8 | 0.13
NS(=O)(=O)c1ccc(NC(=O)CC2SC(=O)NC2=O)cc1 (stereo not drawn) | . | -0.55
Cc1nc2ccccn2c1-c1csc(Nc2cccc(O)c2)n1 | -0.61 | -1.5
Cc1cc2c(Oc3cccc(Cl)c3)ncnc2s1 | 1 | .
CCC(C)NC(=O)CCc1c(C)nc2c(c(C)nn2C(C)(C)C)c1C (stereo not drawn) | 0.65 | -1.9
COc1cccc(-c2nc(-c3ccncc3)no2)c1 | -1.3 | -0.13
COC(=O)Nc1nc2ccc(S(=O)(=O)O)cc2[nH]1 | . | -0.67

Look-ups from the list:
For CDC25B-CDK2 inh, NS(=O)(=O)c1ccc(NC(=O)CC2SC(=O)NC2=O)cc1 (stereo not drawn) reads -0.55
For TAR Tat displ, COc1cccc(-c2nc(-c3ccncc3)no2)c1 reads -1.3
For CDC25B-CDK2 inh, COC(=O)Nc1nc2ccc(S(=O)(=O)O)cc2[nH]1 reads -0.67
For TAR Tat displ, CC(=O)N1CC=C(c2c(C)[nH]c3ccccc23)CC1 reads -1.1
For CDC25B-CDK2 inh, COc1ccc(S(=O)(=O)N2CCc3ccccc3C2)cc1OC reads 0.13

Next section.
SMILES | TAR Tat displ | CDC25B-CDK2 inh
COC(=O)c1nnn(-c2nonc2N)c1CSC1=NCCS1 | . | -2.1
CCN(CC)c1c(S(=O)(=O)c2ccc(Cl)cc2)cnc2ccc(OC)cc12 | -0.01 | -0.65
CCOC(=O)c1nc(-c2ccccn2)no1 | 0.71 | -1.5
Cc1nc2scc(C)n2c(=O)c1S(=O)(=O)Nc1ccc(Cl)cc1 | 0.53 | -0.09
CCOC(=O)[C@@H](N)CCSC | . | 0.42
CCC(C)(C)Nc1c(-c2ccc(Cl)cc2)c(=O)c1=O | 0.39 | .
Cc1ccc(C(C)C)c(OCCCn2c(C(C)O)nc3ccccc32)c1 (stereo not drawn) | 1.2 | -0.79
c1nc(NCCc2ccsc2)c2nc3n(c2n1)CCCC3 | 0.56 | .
CCCN1C2=C(C(=O)CC(C)(C)C2)C(c2ccc(O)cc2)C2=C1CC(C)(C)CC2=O | -0.9 | -1.8
O=C(CN1C(=O)COc2ccc(S(=O)(=O)N3CCOCC3)cc21)NC1CCCC1 | -0.81 | -0.18
O=C(O)CNS(=O)(=O)c1cccc2nsnc12 | 1.7 | .
O=S(=O)(c1cnc[nH]1)N1CCCC1c1ccc(F)cc1 (stereo not drawn) | 0.91 | -2.1
CCN1CCCC1CNC(=O)c1cnn(-c2ccc(F)cc2)c1-n1cccc1 (stereo not drawn) | 1.1 | .
CS(=O)(=O)n1nc(-c2ccco2)nc1NCc1ccc(OCc2ccccc2)cc1 | 0.15 | -1.6
O=C(Nc1ccc2c(c1)OCO2)c1ccc(Cn2nc(N3CCN(c4ccccc4)CC3)ccc2=O)o1 | 17* | .
Cc1ccc(CNC(=O)CNC(=O)C2(C)Cn3c(cc4ccccc43)C(=O)N2C)o1 (stereo not drawn) | 0.83 | .
Cc1ccc(-c2nc(CSc3nc4ncccc4[nH]3)c(C)o2)cc1 | 1.4 | .
CCCC(=O)n1nc(-c2ccco2)nc1NCc1cccs1 | 1.2 | -0.42
CN(C)CCCN1CNC(=S)NC1 | . | 0.17
